High-throughput results from PubChem.
TRPV1 potentiator = enhances activation of the human vanilloid receptor TRPV1; Q8NER1; potentiation, % at 8.33 µM; TRPV1-expressing cells, Fluo-8 calcium influx, capsaicin EC20 potentiation; host cell line not named in the record; control for the full effect not named in the record; actives 0.02% (n = 320,000); active means potentiation above 80%; inconclusive means 30% to 80%; inactive means below 30%; note: 0% is about no effect
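TRPV1-expressing cells were cultured overnight at 35.5C and loaded with Fluo-8 calcium dye for 40 to 90 min at room temperature. After a 10 s baseline, compound was added and calcium influx was read kinetically for 3 min (ex 480/em 520 nm).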
CtBP-E1A inh = CtBP/E1A binding inhibition. AID 651724. actives 0.49% (n = 340,000). AlphaScreen GST-E1A/His-CtBP binding, 1536-well; stronger effect = lower value; control for the full effect not named in the record. activity change, % (no concentration beside the values); in the data active means activity change below about -65%; inconclusive means about -30% to -65%; inactive means above about -30%; note: % is set by controls: 0 for no effect and ±100 for the full control effect; compound concentration not given in the record
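Homogeneous bead-based format: GST-tagged E1A captured on glutathione donor beads, His-tagged CtBP on nickel acceptor beads; compounds precede bead addition by 2 h at 37 °C.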
Sfp inh = blocks B. subtilis Sfp PPTase activity. Potency, µM, inactives show max response, negative = inhibition, hits mostly inhibitors. Q9F4F7. actives 3.5% (n = 310,000). Biochemical Sfp PPTase activity, qHTS; active = well fitted inhibition curve with a large enough effect; inconclusive = small, poorly fitted or top-dose-only effect, or another doubt; inactive = no such curve, though single readings can be large or run the other way;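 note: the enzyme is Sfp with the accession as filed and its product quenches rhodamine fluorescence; potency is the fitted concentration of half-maximal effect; 0% = enzyme reaction without inhibitor and -100% = no enzyme wells; top concentration of the series not given in the record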
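After 15 min at room temperature with compound, 15 nM Sfp received 5 uM rhodamine-CoA plus 12.5 uM BHQ-2-ybbR (50 mM Hepes pH 7.6, 10 mM MgCl2). Rate came from the fluorescence difference over 30 min, ex 525/em 598 nm.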
D2 potentiator = positive allosteric modulators of human D2 dopamine receptor. actives 0.23% (n = 360,000). P14416. DiscoveRx D2 beta-arrestin cells, luminescence, 90 min; 100% = 57 uM dopamine signal. potentiation, % (concentration not given with the values); active = potentiation of 50% or more; inconclusive = 30% to 50%; inactive = 30% or less;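 note: compound concentration not given in the record; tested on top of an EC20 dose of dopamine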
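PathHunter D2 cells, attached overnight at 37 deg C, received compound in DMSO plus dopamine at EC20 (50 nM final) for 90 min at 37 deg C. Beta-arrestin recruitment was read as luminescence after 1 h with detection reagent at ambient temperature.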
PINK1 expr mod = modulators of PINK1 expression | PINK1 immunofluorescence, high-content cytometry, 24 h | Potency, µM (top dose mostly 76.6 µM), inactives show top-dose activation (PINK1 increase), most hits filed as activators | actives 0.2% (n = 410,000) | AID 624263; active = well fitted activation curve with a large enough effect; inconclusive = small, poorly fitted or top-dose-only effect; inactive = flat fitted curve, though single readings scatter; cell line not stated here;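 note: potency is the fitted concentration of half-maximal effect; % of control where 0% means no effect; nearly all actives have a fitted effect of over 65% in size; a mitochondrial uncoupler was the plate control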
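Stable cell line treated 24 h with compounds at 5 concentrations (CCCP controls), then fixed and immunostained for PINK1 plus nuclear and cell stains; PINK1 immunofluorescence quantified by laser-scanning microplate cytometry.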
D2 ag = activates the human D2 dopamine receptor; P14416; DiscoveRx PathHunter D2 beta-arrestin, luminescence, 90 min; 100% = 57 uM dopamine signal; activation, % (concentration not given with the values); actives 0.084% (n = 360,000); AID 624465; in the data active = activation above about 40%; inconclusive = about 15% to 40%; inactive = below about 15%; note: compound concentration not given in the record; the text of the record calls up to 30% inactive
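DiscoveRx PathHunter D2 beta-arrestin cells (2,100/well) attached overnight, then compound-stimulated 90 min at 37 C in HBSS/10 mM HEPES/0.1% Tween-20 buffer; beta-galactosidase complementation read by luminescence after 1 h at ambient temperature. Dopamine 57 uM final (EC100) as control.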
Six1-Eya2 inh = blocks human Six1 binding to Eya2; Q15475+O00167; AlphaScreen GST-Six1/His-Eya2 binding, biochemical; stronger effect = lower value; control for the full effect not named in the record; activity change, % (concentration not given with the values); actives 0.56% (n = 360,000); AID 651725; in the data active = activity change below about -65%; inconclusive = about -30% to -65%; inactive = above about -30%; note: % is set by controls: 0 for no effect and ±100 for the full control effect
Target sequence (O00167 whole entry, looked up): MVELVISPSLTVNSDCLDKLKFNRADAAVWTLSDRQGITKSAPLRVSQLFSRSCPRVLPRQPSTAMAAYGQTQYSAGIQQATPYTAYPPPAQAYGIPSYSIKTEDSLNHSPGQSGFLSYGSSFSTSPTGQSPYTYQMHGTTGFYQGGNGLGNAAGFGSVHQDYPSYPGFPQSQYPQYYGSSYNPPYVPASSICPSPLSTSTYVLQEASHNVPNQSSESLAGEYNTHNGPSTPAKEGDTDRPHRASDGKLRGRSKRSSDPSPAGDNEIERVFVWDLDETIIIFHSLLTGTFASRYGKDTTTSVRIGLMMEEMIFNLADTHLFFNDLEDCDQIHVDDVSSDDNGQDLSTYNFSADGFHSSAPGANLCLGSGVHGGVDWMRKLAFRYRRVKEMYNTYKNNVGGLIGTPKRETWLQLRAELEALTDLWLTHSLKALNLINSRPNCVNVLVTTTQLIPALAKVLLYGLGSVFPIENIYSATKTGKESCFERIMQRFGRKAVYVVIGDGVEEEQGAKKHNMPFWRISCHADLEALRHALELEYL
Target sequence (Q15475 whole entry, looked up): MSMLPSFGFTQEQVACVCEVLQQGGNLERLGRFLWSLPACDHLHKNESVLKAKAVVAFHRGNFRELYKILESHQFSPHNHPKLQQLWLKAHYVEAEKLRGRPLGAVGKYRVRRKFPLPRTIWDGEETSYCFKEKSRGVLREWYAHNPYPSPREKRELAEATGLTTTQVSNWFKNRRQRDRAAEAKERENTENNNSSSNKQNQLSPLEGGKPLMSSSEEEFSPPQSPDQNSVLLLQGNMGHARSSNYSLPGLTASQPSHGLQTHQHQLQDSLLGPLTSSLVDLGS
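Six1/Eya2 binding was read as AlphaScreen signal after compounds were pinned into GST-Six1 plus His-tagged Eya2 (5X stock 250/500 nM) in pH 8.0 Tris/NaCl/TCEP buffer, beads added, then incubated 1 h, 37 C, dark.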
* hit, by the source's call; ? = inconclusive; · = no result given; [ ] = dose if it differs, or a comment. Compounds were not picked by outcome; 3.7% or so of the library scored in one or more.

item	smiles	PINK1 expr mod	Six1-Eya2 inh	TRPV1 potentiator	Sfp inh	D2 potentiator	D2 ag	CtBP-E1A inh
1	COc1cccc(CC2(CO)CCCN(Cc3sc(N4CCCC4)nc3Cl)C2)c1 (stereo not given)	0.7%	-7	-5	-5%	-14	1.1	-7
2	Cc1ccc(-n2c(SCC(=O)N3CCC(C(=O)O)CC3)nc3ccccc3c2=O)cc1C	0.4%	-1	3	0%	4	2.5	1
3	CCOc1ccccc1NC(=O)CSc1nc2[nH]ncc2c(=O)[nH]1	0.1%	-4	-1	·	-4	-1.3	11
4	CC(Oc1ccc(F)cc1)C(=O)Nc1cc(S(=O)(=O)N2CCOCC2)ccc1N1CCCC1 (stereo not given)	-0.7%	-3	0	4%	-34	3.2	-10
5	C/C(=N\Nc1ccc(Cl)cc1)c1ccncc1	2.8%	-16	6	-10%	-6	-6.9	5
6	COc1cccc(CNCCSc2nnnn2C)c1OC	-2.3%[38.3 µM]	1	6	16%	-4	-2.1	40
7	Cc1cc(C)n2nc(C(=O)OCC(=O)c3cc(C)n(CC4CCCO4)c3C)nc2n1 (stereo not given)	-1.2%	-6	22	-11%	-2	3.6	3
8	CCOC(=O)c1cnn(-c2ccccc2)c1-n1cccc1	-0.6%	2	16	8%	-21	-1.4	10
9	COc1ccc(N(CC(=O)Nc2ccc(S(=O)(=O)N3CCOCC3)cc2)S(=O)(=O)c2ccccc2)cc1	-0.8%	-7	-5	10%	-9	-1.0	-7
10	O=C(COC(=O)Cc1ccsc1)Nc1ccc(F)cc1Cl	1.4%	5	-2	·	-5	-1.8	11
11	S=C(Nc1ccc(Cl)cc1)NC1CCCCC1	?	-5	·	18%	-5	0.0	3
12	COc1cc(N(C(=O)Cc2cccs2)C(C(=O)NC2CCCCC2)c2cccc(OC)c2OC)ccc1-n1cnnn1 (stereo not given)	0.3%	-3	17	9%	-3	-2.5	0
13	CC(C)(C)N(Cc1ccccc1)C(=O)COC(=O)Cn1cnc2ccccc2c1=O	-0.3%	-3	2	20%	-2	-1.6	11
14	O=C(O)c1cccc(S(=O)(=O)Nc2ccccc2Oc2ccccc2)c1	0.1%	8	·	·	2	1.4	7
15	CN(C(=O)c1ccc(NC(=O)Cc2cccc(NC(=O)C3CCCN(C(=O)C4CCC4)C3)c2)cc1)C1CC1 (stereo not given)	0.1%	2	·	·	-3	-4.2	-7
16	Cc1ccc(S(=O)(=O)N2CCN(c3ncnc4c3cnn4-c3ccccc3)CC2)cc1	5.2%	7	9	-1%	0	-4.3	5
17	COc1ccc(CCNC(=O)c2cnn3ccccc23)c(OC)c1OC	3.4%	2	-4	-16%	-1	-3.4	5
18	CCOc1ccccc1C(=O)NCC(=O)O	1.3%	-20	?	5%	-8	-4.2	-6
19	c1ccc(-c2cc(-c3nnc4n3N=C(c3ccc5ccccc5c3)CS4)[nH]n2)cc1	2.0%[38.3 µM]	-18	9	-15%	-13	3.0	-7
20	O=C(O)Cn1cc(C(=O)c2ccco2)c2ccccc21	-0.8%	-1	3	-22%	-14	-4.9	2
21	Cc1ccc(NC(=O)CSc2nc(=O)n(CCN(C)C)c3c2CCCC3)c(C)c1	-1.2%	5	-2	·	-14	-5.7	-2
22	COc1ccccc1N1CCN(CCCNC(=O)C2CCCN(c3ncnc4c3nc3n4CCCCC3)C2)CC1 (stereo not given)	0.0%	-12	3	9%	-17	-5.3	·
23	Cc1c(NC2=CC(=O)CC(C)(C)C2)c(=O)n(-c2ccccc2)n1C	1.3%	2	3	5%	-6	0.1	1
24	Cc1cc([N+](=O)[O-])cc2c1-c1ncccc1C2=Nc1ccccc1	-1.1%	-9	0	3%	?	3.8	8
25	O=C(Nc1ccn(CCCNCc2ccccn2)c(=O)n1)OCc1ccccc1	-0.8%	?	·	·	·	-2.3	?
26	O=C1CNC(=O)/C(=C/c2cccs2)N1	14%	1	-23	5%	-6	2.1	18
27	O=c1c2cc([N+](=O)[O-])ccc2nc(CN2CCN(c3ccccn3)CC2)n1-c1ccccc1F	0.7%	6	2	?	-3	0.5	0
28	NS(=O)(=O)c1ccc(CCNC(=O)c2coc3ccccc3c2=O)cc1	-1.3%	5	?	1%	-2	-2.7	1
29	OC1(CNCc2cn[nH]c2-c2cc3ccccc3o2)CCCCC1	1.3%	-1	-1	20%	-19	1.2	22
30	COc1cc(/C=N/NC(=O)c2cccc([N+](=O)[O-])c2)ccc1O	2.8%	-5	-4	19%	-8	-19	-7

The closing 2 compounds of the part above are carried over, then new ones follow:
item	smiles	PINK1 expr mod	Six1-Eya2 inh	TRPV1 potentiator	Sfp inh	D2 potentiator	D2 ag	CtBP-E1A inh
29	OC1(CNCc2cn[nH]c2-c2cc3ccccc3o2)CCCCC1	1.3%	-1	-1	20%	-19	1.2	22
30	COc1cc(/C=N/NC(=O)c2cccc([N+](=O)[O-])c2)ccc1O	2.8%	-5	-4	19%	-8	-19	-7
31	Cc1ccc(NC(=S)N2CCN(Cc3ccccc3)CC2)cc1	0.9%	-6	-16	23%	-9	1.7	1
32	CCOC(=O)N1CCN(C(=O)CSc2ccc(-c3ccc(OC)c(OC)c3)nn2)CC1	5.9%	-7	22	15%	7	7.3	-3
33	O=C(CN(C(=O)CCC(=O)Nc1nccs1)c1cccc(C(F)(F)F)c1)NCC1CCCO1 (stereo not given)	-0.2%	1	1	16%	-10	-0.8	-7
34	O=C(CSCc1ccc(Cl)cc1)N1CCOCC1	1.7%	1	16	4%	-21	-4.1	16
35	CC(C)(C)c1ccc(C(=O)NCC(=O)N/N=C/c2cccs2)cc1	-1.1%	3	1	7%	-9	1.3	·
36	COc1ccc2nc(/N=C/c3c(C)[nH]n(-c4ccc(C)cc4)c3=O)sc2c1	-1.4%	-76*	-25	-1%	-6	-3.8	?
37	O=C(COC(=O)C1CCC1)Nc1ccccc1Sc1ccccc1	0.5%	37	1	8%	-18	-6.5	9
38	CCn1c(CNc2ccccc2Cl)nnc1SCCN1CCCCC1	-3.8%	0	2	19%	-15	-4.2	12
39	COc1ccc(CCNC(=O)CCNC(=O)c2ccc([N+](=O)[O-])cc2)cc1	-3.3%	0	6	8%	-1	-14	1
40	Oc1ccc(N=Nc2ccccc2)cc1	3.6%	-25	6	9%	-11	-2.6	·
41	COc1ccc(N/C=C(\C#N)S(=O)(=O)c2ccc(Cl)cc2)c(OC)c1	-0.6%	-8	2	9%	-4	-4.5	7
42	OC[C@@H]1CN(Cc2cccs2)C[C@H](n2cnc3c(NCc4ccncc4)ncnc32)O1	1.7%	5	·	·	-6	-4.3	2
43	O=C(Nc1cccc2ccccc12)N(CCO)C1CCS(=O)(=O)C1 (stereo not given)	-2.1%	1	?	5%	2	-0.8	-25
44	O=C(Nc1ccc2c(c1)OCO2)N1CCN(Cc2ccco2)CC1	3.0%	5	-15	8%	-2	-3.5	5
45	Clc1cccc(Cc2c(-c3ccco3)nc3ccc(Cl)cn23)c1	-0.9%	?	·	·	-9	-10	3
46	COc1ccccc1C1C(C(N)=O)=C(C)Nc2ncnn21 (stereo not given)	1.0%	3	-5	7%	-5	-1.6	-6
47	Cc1cccc2cc(C(c3nnnn3Cc3ccc4c(c3)OCO4)N3CCCC3)c(=O)[nH]c12 (stereo not given)	0.5%	-5	4	56µM*	-10	-3.6	-7
48	O=C(COC(=O)CCC1CCCC1)Nc1nc2c(F)c(F)c(F)cc2s1	-1.5%	3	1	13%	-6	4.5	7
49	CC(=O)COC(=O)c1ccc2noc(-c3ccccc3)c2c1	3.5%	0	-11	2%	?	3.6	-11
50	CCN1CCN(c2cc(C)c3cc(NC(=O)CCC(=O)Nc4ccc(OC)cc4OC)ccc3n2)CC1	2.0%	-4	2	7%	-11	-1.3	-2

A second format for part of the listing above:
#1 COc1cccc(CC2(CO)CCCN(Cc3sc(N4CCCC4)nc3Cl)C2)c1 (stereo not given)
#2 Cc1ccc(-n2c(SCC(=O)N3CCC(C(=O)O)CC3)nc3ccccc3c2=O)cc1C
#3 CCOc1ccccc1NC(=O)CSc1nc2[nH]ncc2c(=O)[nH]1
#4 CC(Oc1ccc(F)cc1)C(=O)Nc1cc(S(=O)(=O)N2CCOCC2)ccc1N1CCCC1 (stereo not given)
#5 C/C(=N\Nc1ccc(Cl)cc1)c1ccncc1
#6 COc1cccc(CNCCSc2nnnn2C)c1OC
#7 Cc1cc(C)n2nc(C(=O)OCC(=O)c3cc(C)n(CC4CCCO4)c3C)nc2n1 (stereo not given)
#8 CCOC(=O)c1cnn(-c2ccccc2)c1-n1cccc1
#9 COc1ccc(N(CC(=O)Nc2ccc(S(=O)(=O)N3CCOCC3)cc2)S(=O)(=O)c2ccccc2)cc1
#10 O=C(COC(=O)Cc1ccsc1)Nc1ccc(F)cc1Cl

screen / no.,1,2,3,4,5,6,7,8,9,10
PINK1 expr mod,0.7%,0.4%,0.1%,-0.7%,2.8%,-2.3%[38.3 µM],-1.2%,-0.6%,-0.8%,1.4%
Six1-Eya2 inh,-7,-1,-4,-3,-16,1,-6,2,-7,5
TRPV1 potentiator,-5,3,-1,0,6,6,22,16,-5,-2
Sfp inh,-5%,0%,·,4%,-10%,16%,-11%,8%,10%,·
D2 potentiator,-14,4,-4,-34,-6,-4,-2,-21,-9,-5
D2 ag,1.1,2.5,-1.3,3.2,-6.9,-2.1,3.6,-1.4,-1.0,-1.8
CtBP-E1A inh,-7,1,11,-10,5,40,3,10,-7,11

#11 S=C(Nc1ccc(Cl)cc1)NC1CCCCC1
#12 COc1cc(N(C(=O)Cc2cccs2)C(C(=O)NC2CCCCC2)c2cccc(OC)c2OC)ccc1-n1cnnn1 (stereo not given)
#13 CC(C)(C)N(Cc1ccccc1)C(=O)COC(=O)Cn1cnc2ccccc2c1=O
#14 O=C(O)c1cccc(S(=O)(=O)Nc2ccccc2Oc2ccccc2)c1

screen / no.,11,12,13,14
PINK1 expr mod,?,0.3%,-0.3%,0.1%
Six1-Eya2 inh,-5,-3,-3,8
TRPV1 potentiator,·,17,2,·
Sfp inh,18%,9%,20%,·
D2 potentiator,-5,-3,-2,2
D2 ag,0.0,-2.5,-1.6,1.4
CtBP-E1A inh,3,0,11,7
